Mtb hypoxia rep: Mtb hypoxia fluorescent reporter inhibition | M. tuberculosis hypoxia-regulated fluorescent reporter, fluorescence | fluorescence inhibition, % (test concentration not listed) | hit rate 0.1% among 300,000 | AID 1159583;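 active = 35 to 45% if threefold the growth effect, above 45% if 1.5-fold the growth effect; inactive = the rest, general growth blockers included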;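 note: wells of about 50 µL received 100 nL stock; 0% = vehicle wells and 100% = reference inhibitor wells; whole bacteria with a GFP reporter of the hypoxia response; strong numbers were not always called active; many hits fall short of the cut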
Autofluor counter: compound fluorescence in toxin protease inhibitor counterscreen; compound autofluorescence counterscreen, microsphere flow cytometry; active compounds read high; fluorescence intensity (test concentration not listed); hit rate 3.1% among 360,000; AID 624483;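 active = at least 3 SD above the mean of all compounds, about 16000 in these data; inconclusive = too few beads counted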;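 note: 100 nL of 1 mM stock went into each well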
PrP UTR inh: suppresses PrP 5' UTR mRNA reporter expression; cell-based PrP 5' UTR mRNA reporter, plate reader; inhibition, % (concentration not given with the values); hit rate 0.35% among 340,000; AID 488862;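 active = every replicate at 50% or more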;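 note: 0 = median of the neutral control wells; tested in H4 reporter cells; numbers are from one replicate; inactives centre near -14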
Sa RN4220 lethal: kills Staphylococcus aureus RN4220; S. aureus RN4220 growth, OD600, 16 h; AID 1259311; hit rate 0.33% among 330,000; inhibition, % (test concentration not listed);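 active = z-score of -3 or lower and OD600 up to 0.18 on both plates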;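 note: plate controls were untreated cells for no effect and reference antibiotic for full effect; stock transfer was 100 nL into about 80 µL; one replicate is shown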
Sa ugtP lethal: growth inhibition of S. aureus ugtP deletion strain. S. aureus RN4220 ugtP deletion, OD600 growth, 16 h; some inactives read as strong as hits. growth inhibition, % (no concentration beside the values). hit rate 0.54% among 330,000;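 active = z-score under -3 and OD600 up to 0.15 on both plates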;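 note: plate controls were untreated wells for no effect and antibiotic for full effect; wells of about 80 µL received 100 nL stock; the first replicate is given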
BJeLR viability: BJeLR cell viability loss. inhibition, % (concentration not given with the values). hit rate 0.17% among 300,000. BJeLR (HRASV12) viability, CellTiter-Glo ATP luminescence, 48 h; reference of the scale not given here. AID 1554;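 active = replicate mean above 50%; inconclusive = above 50% but judged a plate artefact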;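 note: 50 nL library stock added to about 25 µL; numbers are from one replicate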
Mtb hypoxia rep growth: recorded beside Mtb hypoxia rep, whose call it bears; growth inhibition, %; measured here: M. tuberculosis growth (absorbance);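 0% = vehicle and 100% = reference antibiotic; read after six days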
* marks the source's active call; other numbers are inactive results.

Results for O=c1/c(=C\c2ccc(O)cc2)sc2n1C(c1ccccc1)C(c1ccccc1)=NN=2 (stereo not drawn) ?
Autofluor counter: 3857; PrP UTR inh: -10; BJeLR viability: 5

How did CC(NCC(O)c1ccc([N+](=O)[O-])cc1)C12CC3CC(CC(C3)C1)C2 (stereo not drawn) do in these assays?
Mtb hypoxia rep: -18; PrP UTR inh: -12; Sa RN4220 lethal: -0.4; Sa ugtP lethal: -5; BJeLR viability: 10; Mtb hypoxia rep growth: 8

How did CCOC(=O)c1ccc(-n2c(N)c(C(=O)NCc3ccco3)sc2=S)cc1 do in these assays?
Mtb hypoxia rep: -1; Autofluor counter: 23235*; PrP UTR inh: -10; Sa RN4220 lethal: 3.7; Sa ugtP lethal: 1; BJeLR viability: -8; Mtb hypoxia rep growth: 5

How did COc1ccc(Nc2cc(=O)oc3ccccc23)cc1 do in these assays?
Autofluor counter: 3464; PrP UTR inh: -3; Sa RN4220 lethal: -1.2; Sa ugtP lethal: 3; BJeLR viability: 21

What do the screens show for `CN(c1ccc(C(=O)Nc2ccccc2Sc2ccccc2)cc1)S(C)(=O)=O`?
Autofluor counter: 4777; PrP UTR inh: 4; Sa RN4220 lethal: -0.8; Sa ugtP lethal: 5; BJeLR viability: 7

What do the screens show for `C=CCOc1ccn(C)c(=O)n1`?
Mtb hypoxia rep: 10; Autofluor counter: 3565; PrP UTR inh: -15; Sa RN4220 lethal: 0.8; Sa ugtP lethal: -1; BJeLR viability: -3; Mtb hypoxia rep growth: 3

What do the screens show for `CCOC(=O)C1(Cc2ccccc2C)CCCN(S(=O)(=O)CC)C1` (stereo not drawn)?
Mtb hypoxia rep: 3; Autofluor counter: 3834; PrP UTR inh: -23; Sa RN4220 lethal: -2.3; Sa ugtP lethal: -4; BJeLR viability: 1; Mtb hypoxia rep growth: 8

Results for OCCNc1nc(Nc2ccc(Br)cc2)nc2ccccc12 ?
Mtb hypoxia rep: -11; Sa RN4220 lethal: -8.7; Sa ugtP lethal: -20; BJeLR viability: 11; Mtb hypoxia rep growth: 9

What do the screens show for `CC(=O)NC(=S)Nc1sc2c(c1C#N)CCCCC2`?
Mtb hypoxia rep: 7; Autofluor counter: 2557; PrP UTR inh: -134; Sa RN4220 lethal: 5.8; Sa ugtP lethal: 2; BJeLR viability: 7; Mtb hypoxia rep growth: 1

How did O=C(CN1C(=O)/C(=C/c2ccccc2F)Sc2ccccc21)NCC1CCCO1 (stereo not drawn) do in these assays?
Mtb hypoxia rep: -9; PrP UTR inh: -26; Sa RN4220 lethal: 1.1; Sa ugtP lethal: 3; BJeLR viability: 9; Mtb hypoxia rep growth: -7

What do the screens show for `CC(=O)Nc1ccc(-n2nnnc2SCC(=O)Nc2cccc(NC(=O)c3ccco3)c2)cc1`?
Mtb hypoxia rep: 14; Autofluor counter: 4339; PrP UTR inh: -4; Sa RN4220 lethal: -1.6; Sa ugtP lethal: 2; BJeLR viability: -1; Mtb hypoxia rep growth: -4

How did COc1ccc(S(=O)(=O)N2CCCC(C(=O)NCc3ccco3)C2)cc1OC (stereo not drawn) do in these assays?
Mtb hypoxia rep: -1; Autofluor counter: 6875; PrP UTR inh: -19; Sa RN4220 lethal: 1.8; Sa ugtP lethal: 0; BJeLR viability: 2; Mtb hypoxia rep growth: -3

Results for CCC1Sc2ccc(S(=O)(=O)Nc3ccc(OC)cc3)cc2NC1=O (stereo not drawn) ?
Mtb hypoxia rep: 5; Autofluor counter: 5534; PrP UTR inh: -11; Sa RN4220 lethal: 96*; Sa ugtP lethal: 93*; BJeLR viability: 2; Mtb hypoxia rep growth: -4

What do the screens show for `O=C(NN1CC(C(=O)OCc2ccccc2F)CC1=O)c1ccccc1` (stereo not drawn)?
Mtb hypoxia rep: 5; Autofluor counter: 4178; PrP UTR inh: 2; Sa RN4220 lethal: 1.8; Sa ugtP lethal: -1; BJeLR viability: -2; Mtb hypoxia rep growth: 6

Results for COC(=O)C1=NN(c2ccc(C)cc2)C2C(=O)N(c3ccccc3OC)C(=O)C12 (stereo not drawn) ?
Mtb hypoxia rep: 16; Autofluor counter: 4303; PrP UTR inh: -7; Sa RN4220 lethal: 5.1; Sa ugtP lethal: -2; BJeLR viability: -7; Mtb hypoxia rep growth: 7

How did Cc1cccc(C(=O)NC2CCN(C(=O)NCc3ccccc3)CC2)c1 do in these assays?
Mtb hypoxia rep: 5; Autofluor counter: 3704; PrP UTR inh: -24; Sa RN4220 lethal: 1.1; Sa ugtP lethal: 8; BJeLR viability: -7; Mtb hypoxia rep growth: 5

Results for COc1ccc(S(=O)(=O)N2CCC(C(=O)N[C@H](C(=O)N3CCCCCC3)C(C)C)CC2)cc1 ?
Mtb hypoxia rep: 1; Autofluor counter: 5138; PrP UTR inh: -92; Sa RN4220 lethal: 3.8; Sa ugtP lethal: 3; BJeLR viability: 5; Mtb hypoxia rep growth: 11

What do the screens show for `COc1cc(-c2c(NC(=O)c3ccco3)oc3ccccc3c2=O)cc(OC)c1OC`?
Mtb hypoxia rep: 8; Autofluor counter: 4229; PrP UTR inh: -12; Sa RN4220 lethal: 2.6; Sa ugtP lethal: 4; BJeLR viability: -2; Mtb hypoxia rep growth: -2

Results for O=C(COC(=O)c1c(Cl)ccc(Cl)c1Cl)NC1CCS(=O)(=O)C1 (stereo not drawn) ?
Mtb hypoxia rep: -3; Autofluor counter: 4106; PrP UTR inh: -14; Sa RN4220 lethal: 4.2; Sa ugtP lethal: -1; BJeLR viability: 19; Mtb hypoxia rep growth: 8

How did C=C1C(O)CC(C(C)C)N(CC(C)C)S1(=O)=O (stereo not drawn) do in these assays?
Mtb hypoxia rep: 8; Sa RN4220 lethal: 3.3; Sa ugtP lethal: -1; Mtb hypoxia rep growth: 11

How did COC(=O)/C(C#N)=C/N(C)C do in these assays?
Mtb hypoxia rep: 10; PrP UTR inh: -26; Sa RN4220 lethal: 3.6; Sa ugtP lethal: 1; BJeLR viability: -9; Mtb hypoxia rep growth: 4

Results for O=C(/C=C/c1ccc(Cl)c(Cl)c1)NCc1ccco1 ?
Mtb hypoxia rep: 7; Autofluor counter: 2025; PrP UTR inh: 1; Sa RN4220 lethal: -7.6; Sa ugtP lethal: 2; BJeLR viability: 4; Mtb hypoxia rep growth: 7

What do the screens show for `O=C(O)c1cc(NN=C/C=C/c2ccccc2)ccc1Cl`?
Mtb hypoxia rep: -10; Sa RN4220 lethal: 2.5; Sa ugtP lethal: -6; Mtb hypoxia rep growth: -1

What do the screens show for `O=[N+]([O-])c1ccccc1/C=C/CN1CCSCC1`?
Mtb hypoxia rep: 8; Autofluor counter: 3131; PrP UTR inh: -17; Sa RN4220 lethal: 2.0; Sa ugtP lethal: 16; BJeLR viability: -9; Mtb hypoxia rep growth: -2

A draw from above in order of molecular weight, lowest first:
How did C=C1C(O)CC(C(C)C)N(CC(C)C)S1(=O)=O (stereo not drawn) do in these assays?
Mtb hypoxia rep: 8; Sa RN4220 lethal: 3.3; Sa ugtP lethal: -1; Mtb hypoxia rep growth: 11

Results for CCC1Sc2ccc(S(=O)(=O)Nc3ccc(OC)cc3)cc2NC1=O (stereo not drawn) ?
Mtb hypoxia rep: 5; Autofluor counter: 5534; PrP UTR inh: -11; Sa RN4220 lethal: 96*; Sa ugtP lethal: 93*; BJeLR viability: 2; Mtb hypoxia rep growth: -4

What do the screens show for `COc1cc(-c2c(NC(=O)c3ccco3)oc3ccccc3c2=O)cc(OC)c1OC`?
Mtb hypoxia rep: 8; Autofluor counter: 4229; PrP UTR inh: -12; Sa RN4220 lethal: 2.6; Sa ugtP lethal: 4; BJeLR viability: -2; Mtb hypoxia rep growth: -2

(further entries)
What do the screens show for `COc1ccc(C2NC(c3ccc(OC)cc3)C(C)C(=O)C2C)cc1` (stereo not drawn)?
Mtb hypoxia rep: 8; Autofluor counter: 4377; PrP UTR inh: -17; Sa RN4220 lethal: 3.0; Sa ugtP lethal: 11; BJeLR viability: -3; Mtb hypoxia rep growth: -1

How did O=C(Nc1ccccc1)N1CCN(c2ccccn2)CC1 do in these assays?
Autofluor counter: 3348; PrP UTR inh: -14; Sa RN4220 lethal: 7.5; Sa ugtP lethal: 1; BJeLR viability: -4

Results for C=C(C)COc1ccc(-c2nc(N)ncc2-c2ccc(OC)cc2)c(O)c1 ?
PrP UTR inh: -3; Sa RN4220 lethal: -7.2; Sa ugtP lethal: 0

How did CCCOCC(O)CCc1n[nH]c(=S)n1-c1ccccc1 (stereo not drawn) do in these assays?
Mtb hypoxia rep: 12; Autofluor counter: 3382; PrP UTR inh: 0; Sa RN4220 lethal: 6.9; Sa ugtP lethal: 3; BJeLR viability: -4; Mtb hypoxia rep growth: 4

How did Cc1ccc(C(=O)CCC(=O)N(C)CC(=O)Nc2ccccc2Br)cc1 do in these assays?
Mtb hypoxia rep: 7; Autofluor counter: 5180; PrP UTR inh: -11; Sa RN4220 lethal: 1.1; Sa ugtP lethal: -3; BJeLR viability: 9; Mtb hypoxia rep growth: 2

How did N#Cc1c(Nc2ccccc2)c(C=O)c[nH]c1=O do in these assays?
Autofluor counter: 3846; PrP UTR inh: -10; BJeLR viability: 3

What do the screens show for `COc1ccc(NC(=O)CSc2n[nH]c(-c3ccccn3)n2)cc1`?
Mtb hypoxia rep: 5; Autofluor counter: 3098; PrP UTR inh: -10; Sa RN4220 lethal: 0.2; Sa ugtP lethal: -3; BJeLR viability: 3; Mtb hypoxia rep growth: 0

Results for Nc1c(N(Cc2ccccc2)C(=O)CCc2ccccc2)c(=O)[nH]c(=O)n1Cc1ccccc1 ?
Mtb hypoxia rep: 1; Autofluor counter: inconclusive; PrP UTR inh: 8; Sa RN4220 lethal: 4.4; Sa ugtP lethal: 5; Mtb hypoxia rep growth: 8

How did CCOc1ncccc1C(=O)OCC(=O)N1CC(=O)Nc2ccccc21 do in these assays?
Mtb hypoxia rep: 0; Autofluor counter: 8762; PrP UTR inh: -10; Sa RN4220 lethal: 2.2; Sa ugtP lethal: 4; BJeLR viability: 10; Mtb hypoxia rep growth: 3

What do the screens show for `COc1ccccc1NC(=S)N1CCN(c2nc(-c3ccccc3)cs2)CC1`?
Mtb hypoxia rep: 17; Autofluor counter: 3836; PrP UTR inh: -44; Sa RN4220 lethal: 24; Sa ugtP lethal: -72; BJeLR viability: -9; Mtb hypoxia rep growth: 4

Results for CC1(C)CC(=O)C(C=N)=C(O)C1 ?
Autofluor counter: 5620; PrP UTR inh: -16; Sa RN4220 lethal: 1.0; Sa ugtP lethal: 1; BJeLR viability: -5

How did CC1(c2ccc(Cl)cc2Cl)NC(=O)N(CC(=O)Nc2cccnc2Cl)C1=O (stereo not drawn) do in these assays?
Mtb hypoxia rep: -4; Autofluor counter: 4271; PrP UTR inh: -6; Sa RN4220 lethal: -3.3; Sa ugtP lethal: 2; BJeLR viability: -14; Mtb hypoxia rep growth: 3

How did O=C(O)c1cncc(C#Cc2ccccc2)c1 do in these assays?
Mtb hypoxia rep: 15; Autofluor counter: 4289; PrP UTR inh: -14; Sa RN4220 lethal: 3.5; Sa ugtP lethal: 11; BJeLR viability: -6; Mtb hypoxia rep growth: 8

What do the screens show for `O=C(O)c1cc([N+](=O)[O-])ccc1N1CCCCC1`?
Mtb hypoxia rep: 9; Autofluor counter: 2081; PrP UTR inh: -20; Sa RN4220 lethal: 3.1; Sa ugtP lethal: 9; BJeLR viability: 17; Mtb hypoxia rep growth: 4

How did COc1ccc(C(=O)/C=C(\C)Nc2ccc(NC(C)=O)cc2)cc1 do in these assays?
Mtb hypoxia rep: -5; Autofluor counter: 10356; PrP UTR inh: -46; Sa RN4220 lethal: 3.1; Sa ugtP lethal: 4; BJeLR viability: -9; Mtb hypoxia rep growth: -3

What do the screens show for `CC1CCN(C(=O)CCC(=O)Nc2nnc(C3CCCCC3)s2)CC1`?
Mtb hypoxia rep: 4; Autofluor counter: 4189; PrP UTR inh: 7; Sa RN4220 lethal: 5.3; Sa ugtP lethal: 13; BJeLR viability: -8; Mtb hypoxia rep growth: -1

What do the screens show for `CN(C)CCC(=O)c1cccc(Br)c1`?
Autofluor counter: 2522; PrP UTR inh: -14; BJeLR viability: -6

How did CCC(Sc1nc(-c2ccccc2)cc(=O)[nH]1)C(=O)O (stereo not drawn) do in these assays?
Mtb hypoxia rep: 14; Autofluor counter: 5361; PrP UTR inh: -34; Sa RN4220 lethal: 5.0; Sa ugtP lethal: 6; BJeLR viability: 10; Mtb hypoxia rep growth: 5

Screening results as filed in PubChem.
